NOMO-1 viab – NOMO-1 AML cell viability reduction, primary screen, STK33 inhibitor project, CellTiter-Glo luminescence; NOMO-1 AML viability, 72 h; AID 2330, 2010; inhibition, % (no concentration beside the values); hit rate 7.5% among 37,000;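 active means most replicates above 80%; inconclusive means exactly half above 80%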;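 further: wells of about 30 µL received 25 nL stock; 0% = median of vehicle wells and 100% = reference inhibitor level; the first replicate is given; inactives centre near 10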
Active calls of the source: *; ? = inconclusive. Only part of the results is shown; count on the stated rates, not on these rows.

SMILES	NOMO-1 viab
O=C(CCc1nc(-c2ccc(Cl)cc2)no1)Nc1cccnc1	53.9
COc1ccc(S(=O)(=O)Nc2cccc3c2O[C@@H](CN(C)C(=O)Nc2ccccc2)[C@@H](C)CN([C@H](C)CO)C3=O)cc1	50.5
Cc1noc(C)c1S(=O)(=O)N(C)C[C@H]1Oc2ccc(NC(=O)NC(C)C)cc2CC(=O)N([C@@H](C)CO)C[C@H]1C	22.7
C[C@@H]1CN([C@@H](C)CO)C(=O)c2cc(NC(=O)Cc3ccccc3)ccc2O[C@H]1CN(C)Cc1ccc(Cl)c(Cl)c1	54.8
CCOC(=O)CSc1nc2cccnc2s1	28.1
C[C@@H]1CCCCO[C@@H](CN(C)Cc2ccc(C(F)(F)F)cc2)[C@@H](C)CN([C@H](C)CO)C(=O)c2cc(NS(=O)(=O)c3ccc(Cl)cc3)ccc2O1	111.0*
COc1ccc(S(=O)(=O)Nc2ccc3c(c2)C(=O)N([C@H](C)CO)C[C@@H](C)[C@H](CN(C)C(=O)Nc2c(C)noc2C)O3)cc1	13.9
O=C(Nc1ccccc1C(=O)OCc1cccc(C(=O)c2ccccc2)c1)c1ccccc1	27.3
Cc1nc(SC2CCCCN(C(=O)c3ccc(Cl)cc3)C2=O)c2c3c(sc2n1)CCCC3 (configuration not stated)	93.0*
CC(C)c1ccc(NN2C(=O)CC(c3ccccc3)C2=O)cc1 (configuration not stated)	46.3
COc1ccc(NC(=O)Nc2ccc3c(c2)C(=O)N([C@@H](C)CO)C[C@@H](C)[C@H](CN(C)C(=O)Nc2ccc4c(c2)OCO4)O3)cc1	-8.8
CCN(CCS(=O)(=O)c1ccccc1)S(=O)(=O)c1ccc(C)cc1	-16.4
C[C@@H]1CN([C@@H](C)CO)C(=O)Cc2cc(NS(=O)(=O)c3ccccc3)ccc2O[C@@H]1CN(C)C(=O)Nc1ccc2c(c1)OCO2	5.0
CCOC(=O)c1c(NC(=O)CSc2nnc(C)o2)sc(C)c1C	10.1
O=S(=O)(NCCSc1ccccn1)c1ccc(Br)cc1	4.3
COc1ccc(CN(C)C[C@H]2Oc3ccc(NC(=O)CCCN(C)C)cc3C(=O)N([C@H](C)CO)C[C@H]2C)cc1	13.0
Cc1cc(C)c2c(n1)sc1c(=O)n(NC(=O)Nc3ccccc3)c(C)nc12	-13.3
C[C@@H]1CN([C@H](C)CO)C(=O)c2cc(NS(=O)(=O)c3cn(C)cn3)ccc2O[C@H]1CN(C)Cc1ccc2c(c1)OCO2	14.8
C[C@@H]1CCCCO[C@H](CN(C)Cc2ccncc2)[C@@H](C)CN([C@H](C)CO)C(=O)c2cc(NS(=O)(=O)c3cccs3)ccc2O1	-11.8
Cc1noc(C)c1S(=O)(=O)N(C)C[C@H]1Oc2c(NC(=O)c3ccc(-c4nccs4)cc3)cccc2C(=O)N([C@H](C)CO)C[C@@H]1C	-1.8
CCc1ccccc1NC(=O)C(C)n1cc([N+](=O)[O-])cn1 (configuration not stated)	?
C[C@@H]1CN([C@H](C)CO)C(=O)c2cccc(NS(=O)(=O)c3ccc(F)cc3)c2O[C@H]1CN(C)Cc1ccc(Cl)c(Cl)c1	20.2
CS(=O)(=O)N(CC(=O)Nc1ccc(Br)cc1)c1ccc2c(c1)OCCO2	2.6
C[C@H](CO)N1C[C@H](C)[C@H](CN(C)S(=O)(=O)c2ccc(F)cc2)Oc2ccc(NC(=O)CCCCCC(=O)Nc3ccccc3N)cc2C1=O	-1.5
C[C@@H]1CN([C@H](C)CO)C(=O)c2cccc(N(C)C)c2O[C@H]1CN(C)S(=O)(=O)c1ccccc1	28.0
C[C@@H]1CN([C@H](C)CO)C(=O)c2cc(NC(=O)Nc3ccc(F)cc3)ccc2O[C@@H]1CN(C)S(=O)(=O)c1ccc(Cl)cc1	45.4
C[C@@H]1CN([C@@H](C)CO)C(=O)c2cccc(NC(=O)Nc3ccc(F)cc3)c2O[C@H]1CN(C)S(=O)(=O)c1ccccc1	20.4
COc1cc(NC(=O)COc2ccc(Cl)cc2)c(C(=O)O)cc1OC	-10.6
Cc1noc(C)c1S(=O)(=O)Nc1cccc2c1O[C@@H](CN(C)C(=O)NC1CCCCC1)[C@@H](C)CN([C@@H](C)CO)C2=O	-1.6
C[C@H](CO)N1C[C@H](C)[C@@H](CN(C)S(=O)(=O)c2cccs2)Oc2c(NC(=O)c3ccc(-c4nccs4)cc3)cccc2C1=O	7.3
CCOC(=O)c1c(NC(=O)COc2ccc(F)cc2)sc2c1CCCC2	11.8
C/C=C(\C(C)=N\O)c1ccccc1	-10.2
O=C(COc1ccc(S(=O)(=O)N2CCOCC2)cc1)Nc1ccc(F)c(Cl)c1	7.7
CC(C(=O)c1ccccc1)[n+]1cccc(Br)c1 (configuration not stated)	4.1
C[C@@H]1CN([C@@H](C)CO)C(=O)c2cccc(NC(=O)C3CCOCC3)c2O[C@@H]1CN(C)Cc1ccc(C(=O)O)cc1	-4.4
NC(=O)c1c(NC(=O)C2CC(=O)N(c3ccccc3)C2)sc2c1CCCC2 (configuration not stated)	23.1
CSc1nc(C)cc(OCC(=O)Nc2ccc(Cl)cc2)n1	16.0
COc1ccc(/C=C2\C(=O)c3ccccc3OC2c2ccccc2)cc1 (configuration not stated)	120.0*
C[C@H](CO)N1C[C@H](C)[C@@H](CN(C)C)Oc2c(NC(=O)Nc3ccc(F)cc3)cccc2C1=O	7.0
CC(=O)Nc1c(O)nc(SCC(=O)N2CCN(c3ccc(F)cc3)CC2)[nH]c1=O	-21.0

Sorted by length of the SMILES (falling): part of the list above.
SMILES	NOMO-1 viab
C[C@@H]1CN([C@H](C)CO)C(=O)c2cccc(N(C)C)c2O[C@H]1CN(C)S(=O)(=O)c1ccccc1	28.0
Cc1nc(SC2CCCCN(C(=O)c3ccc(Cl)cc3)C2=O)c2c3c(sc2n1)CCCC3 (configuration not stated)	93.0*
CS(=O)(=O)N(CC(=O)Nc1ccc(Br)cc1)c1ccc2c(c1)OCCO2	2.6

More structures follow:
SMILES	NOMO-1 viab
C[C@H]1CN([C@@H](C)CO)C(=O)Cc2cc(NC(=O)c3ccncc3)ccc2O[C@@H]1CN(C)Cc1ccc(C(F)(F)F)cc1	24.4
CCOC(=O)c1c(C)oc2ccc(OCC(=O)c3ccc(Br)cc3)cc12	-4.3
CC(Sc1nc2c(c(=O)n(C)c(=O)n2C)n1Cc1ccc(Cl)cc1Cl)C(=O)O (configuration not stated)	-15.2
C[C@H]1CN([C@@H](C)CO)C(=O)Cc2cc(NC(=O)C3CCCCC3)ccc2O[C@@H]1CN(C)S(=O)(=O)c1ccccc1	0.7
COC(=O)c1ccc(Cl)c(NC(=O)CSc2nnc(-c3cc(OC)cc(OC)c3)o2)c1	38.4
C[C@H](CO)N1C[C@H](C)[C@@H](CN(C)S(=O)(=O)c2cn(C)cn2)Oc2ccc(NS(=O)(=O)c3cn(C)cn3)cc2C1=O	5.1
C[C@@H]1CN([C@H](C)CO)C(=O)c2cccc(NC(=O)C3CCOCC3)c2O[C@@H]1CN(C)Cc1ccc(-c2ccccc2)cc1	16.7
Cc1ccc(S(=O)(=O)N2CCCCCC2)cc1C	47.4
C[C@@H]1CN([C@H](C)CO)C(=O)Cc2cc(NC(=O)Nc3cccc4ccccc34)ccc2O[C@@H]1CN(C)S(=O)(=O)c1cccs1	1.3
Cc1ccc(S(=O)(=O)Nc2ccc3c(c2)CC(=O)N([C@@H](C)CO)C[C@H](C)[C@@H](CN(C)C(=O)Nc2ccc(F)cc2)O3)cc1	8.7
COC(=O)c1ccccc1NC(=O)CSc1nnc(-c2ccc(C)cc2)o1	5.9
O=C(COc1ccc2ccccc2c1Br)Nc1ccccc1C(=O)NC1CCCCC1	-13.0
CC(NS(=O)(=O)c1ccc(Br)cc1)C(=O)Nc1cccc(F)c1 (configuration not stated)	5.8
C[C@H]1CN([C@@H](C)CO)C(=O)Cc2cc(NC(=O)c3ccncc3)ccc2O[C@H]1CN(C)Cc1ccc(C(=O)Nc2ccccc2N)cc1	126.0*
COc1ccc(-c2nnc(SCC(=O)c3cccc([N+](=O)[O-])c3)n2C)cc1	0.4
C[C@H]1CN([C@@H](C)CO)C(=O)Cc2cc(NC(=O)CCC(F)(F)F)ccc2O[C@@H]1CN(C)C	5.7
COC(=O)[C@H]1CC[C@H](OC(C)=O)[C@]2(C)CC[C@@H](C(C)C)[C@@H](OC(=O)/C=C/c3ccccc3)C12 (some centres not stated)	44.2
C[C@H](CO)N1C[C@H](C)[C@H](CN(C)CC2CC2)Oc2ccc(NS(=O)(=O)c3cn(C)cn3)cc2CC1=O	-8.1
Cc1ccc(S(=O)(=O)N(C)C[C@@H]2Oc3ccc(NC(=O)c4ccncc4)cc3C(=O)N([C@@H](C)CO)C[C@H]2C)cc1	7.2
Cc1cc(C)c(NC(=O)CSc2nnc(-c3ccncc3)n2C)c([N+](=O)[O-])c1	28.4
O=C(COc1ccc2ccccc2c1Br)NCc1cccnc1	-15.0
CC(=O)Nc1ccc(NC(=O)CN(c2ccc(Br)c(C)c2)S(C)(=O)=O)cc1	28.5
C[C@@H]1CN([C@H](C)CO)C(=O)c2cc(NC(=O)C3CC3)ccc2O[C@H]1CN(C)S(C)(=O)=O	-16.2
C[C@@H]1CN([C@H](C)CO)C(=O)c2cc(NS(C)(=O)=O)ccc2O[C@H]1CN(C)C(=O)NC1CCCCC1	9.3
COc1c(O)cc2c(c1O)C(=O)OC(C)C2O (configuration not stated)	12.4
O=C1N(c2cccc(Cl)c2)C(=Nc2cccc(Cl)c2)SC12CC2	114.3*
CC1(C)CC[C@@]2(C(=O)O[C@@H]3O[C@H](CO)[C@@H](O)[C@H](O)[C@H]3O)C(C1)C1=CCC3[C@@]4(C)CC[C@@H](O[C@@H]5O[C@H](C(=O)O)[C@@H](O[C@@H]6OC[C@@H](O)[C@H](O)[C@H]6O)[C@H](O)[C@H]5O)C(C)(C)C4CC[C@@]3(C)[C@]1(C)C[C@H]2O (some centres not stated)	14.8
CCOC(=O)C(C)Sc1nnc2c3ccccc3n(C)c2n1 (configuration not stated)	4.5
C[C@@H]1CN([C@H](C)CO)C(=O)c2cc(NC(=O)Nc3ccccc3)ccc2O[C@H]1CN(C)S(=O)(=O)c1cn(C)cn1	17.3
C[C@H]1CN([C@@H](C)CO)C(=O)Cc2cc(NC(=O)Nc3ccc4c(c3)OCO4)ccc2O[C@H]1CN(C)C(=O)NC1CCCCC1	6.5
C[C@H](CO)N1C[C@H](C)[C@@H](CN(C)C)Oc2ccc(NC(=O)c3ccncc3)cc2C1=O	7.9
COc1ccc(NC(=O)Nc2ccc3c(c2)C(=O)N([C@@H](C)CO)C[C@H](C)[C@@H](CN(C)S(=O)(=O)c2cn(C)cn2)O3)cc1	15.7
C[C@H]1CN([C@@H](C)CO)C(=O)c2cccc(NC(=O)CCCCCC(=O)Nc3ccccc3N)c2O[C@H]1CN(C)S(=O)(=O)c1ccc(F)cc1	66.2

Some of the entries above, reformatted.
canonical_smiles,NOMO-1 viab
CC(NS(=O)(=O)c1ccc(Br)cc1)C(=O)Nc1cccc(F)c1 (configuration not stated),5.8
C[C@H]1CN([C@@H](C)CO)C(=O)Cc2cc(NC(=O)c3ccncc3)ccc2O[C@H]1CN(C)Cc1ccc(C(=O)Nc2ccccc2N)cc1,126.0*
COc1ccc(-c2nnc(SCC(=O)c3cccc([N+](=O)[O-])c3)n2C)cc1,0.4
C[C@H]1CN([C@@H](C)CO)C(=O)Cc2cc(NC(=O)CCC(F)(F)F)ccc2O[C@@H]1CN(C)C,5.7
COC(=O)[C@H]1CC[C@H](OC(C)=O)[C@]2(C)CC[C@@H](C(C)C)[C@@H](OC(=O)/C=C/c3ccccc3)C12 (some centres not stated),44.2
C[C@H](CO)N1C[C@H](C)[C@H](CN(C)CC2CC2)Oc2ccc(NS(=O)(=O)c3cn(C)cn3)cc2CC1=O,-8.1
Cc1ccc(S(=O)(=O)N(C)C[C@@H]2Oc3ccc(NC(=O)c4ccncc4)cc3C(=O)N([C@@H](C)CO)C[C@H]2C)cc1,7.2
Cc1cc(C)c(NC(=O)CSc2nnc(-c3ccncc3)n2C)c([N+](=O)[O-])c1,28.4
O=C(COc1ccc2ccccc2c1Br)NCc1cccnc1,-15.0
CC(=O)Nc1ccc(NC(=O)CN(c2ccc(Br)c(C)c2)S(C)(=O)=O)cc1,28.5
C[C@@H]1CN([C@H](C)CO)C(=O)c2cc(NC(=O)C3CC3)ccc2O[C@H]1CN(C)S(C)(=O)=O,-16.2
C[C@@H]1CN([C@H](C)CO)C(=O)c2cc(NS(C)(=O)=O)ccc2O[C@H]1CN(C)C(=O)NC1CCCCC1,9.3
COc1c(O)cc2c(c1O)C(=O)OC(C)C2O (configuration not stated),12.4
O=C1N(c2cccc(Cl)c2)C(=Nc2cccc(Cl)c2)SC12CC2,114.3*
CC1(C)CC[C@@]2(C(=O)O[C@@H]3O[C@H](CO)[C@@H](O)[C@H](O)[C@H]3O)C(C1)C1=CCC3[C@@]4(C)CC[C@@H](O[C@@H]5O[C@H](C(=O)O)[C@@H](O[C@@H]6OC[C@@H](O)[C@H](O)[C@H]6O)[C@H](O)[C@H]5O)C(C)(C)C4CC[C@@]3(C)[C@]1(C)C[C@H]2O (some centres not stated),14.8
CCOC(=O)C(C)Sc1nnc2c3ccccc3n(C)c2n1 (configuration not stated),4.5
C[C@@H]1CN([C@H](C)CO)C(=O)c2cc(NC(=O)Nc3ccccc3)ccc2O[C@H]1CN(C)S(=O)(=O)c1cn(C)cn1,17.3
C[C@H]1CN([C@@H](C)CO)C(=O)Cc2cc(NC(=O)Nc3ccc4c(c3)OCO4)ccc2O[C@H]1CN(C)C(=O)NC1CCCCC1,6.5
